Bioassay records as filed in PubChem BioAssay.
Ecoli rRNA inh = inhibits bacterial ribosomal RNA function over humanized ribosomes; AID 720706; GFP signal change (wild-type ribosome), % (concentration not given with the values); actives 1.6% (n = 350,000); E. coli WT GFP vs humanized-ribosome RFP mutants, fluorescence, 24 h; hits give low values; DMSO median 0, no signal -100;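 active means significant combined selectivity score with lowered wild-type GFP, culture density cut under 30%, mutant RFP and density less affected; inactive means any of these conditions unmet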; further: one replicate is shown; some compounds called inactive have numbers as strong as hits
FGF22 binding = shifts melting point of recombinant human FGF22; calls only at 9.99 µM; recombinant FGF22 thermal shift, SYPRO orange fluorescence; percent of sucrose octasulfate shift, DMSO zero; actives 1.5% (n = 340,000); Q9HCT0;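 active means melting point raised past a set limit in the mean and every replicate; inconclusive means no clear call; three in four hits are not shown here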
Target sequence (Q9HCT0 whole entry, looked up): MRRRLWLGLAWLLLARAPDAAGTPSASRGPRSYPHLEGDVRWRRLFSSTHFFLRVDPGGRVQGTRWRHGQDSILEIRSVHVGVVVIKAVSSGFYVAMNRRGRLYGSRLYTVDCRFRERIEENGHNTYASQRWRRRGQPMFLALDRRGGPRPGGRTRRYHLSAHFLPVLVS
Beta cell apopt = beta cell apoptosis inhibition | INS-1E cytokine-induced death, ATP luminescence, 48 h; percent of positive-control rescue, neutral wells zero | protection from apoptosis, % (concentration not given with the values) | actives 0.8% (n = 300,000);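 active means all replicates at 75% or more, or half of them and the mean; inconclusive means half reach 75% but not the mean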;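 further: 0% = cytokine-treated negative control wells and 100% = positive control rescue; higher means more ATP so stronger rescue from cytokine killing; wells of about 40 µL received 100 nL stock; the first replicate is given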
ALR inh = human ALR oxidase inhibition via reduced H2O2; P55789; purified ALR, DTT oxidation, H2O2 HRP-luminol luminescence; inhibition, % (test concentration not listed); actives 3.8% (n = 290,000);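 active means mean and each replicate at 75% or more; inconclusive means only one of the two met; inactive means neither met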;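 further: stock transfer was 7.5 nL into about 7.5 µL; 0% = neutral wells and 100% = wells with inactivated enzyme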
Target sequence (P55789 whole entry, looked up): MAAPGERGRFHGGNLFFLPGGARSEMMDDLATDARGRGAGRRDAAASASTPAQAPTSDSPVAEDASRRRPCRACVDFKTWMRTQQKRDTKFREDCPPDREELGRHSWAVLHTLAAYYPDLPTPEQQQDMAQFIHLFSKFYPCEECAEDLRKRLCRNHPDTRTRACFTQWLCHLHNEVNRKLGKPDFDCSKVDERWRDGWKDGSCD
T cruzi repl = T. cruzi replication inhibition; T. cruzi beta-gal in NIH3T3, luminescence, 90 h; inhibition, % (test concentration not listed); AID 1885; actives 1.4% (n = 300,000);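 active means mean inhibition across valid replicates above about 55%, limit read from the data; inconclusive means mean below that limit but half or more replicates reach it; inactive means mean below it, under half of replicates reach it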;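 further: signal also drops with host cell toxicity which is not excluded here; 0% = plate median of DMSO wells and 100% = zero luminescence signal; higher percent means less beta-gal luminescence so fewer parasites; stock transfer was 50 nL into about 50 µL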
RanGTP-Impb inh = disruptors of Ran-importin-beta complex formation – biochemical, FRET, CFP-Ran, YFP-importin-beta, homogeneous, primary screen; cell-free CFP-Ran/YFP-importin-beta FRET ratio; inhibition, % (concentration not given with the values); actives 1.1% (n = 300,000); AID 2216;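 active means most replicates above 15%; inconclusive means exactly half above 15%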;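 further: 0% = DMSO wells and 100% = Ran loaded with GDP instead of GTP; wells of about 40 µL received 100 nL stock; the first replicate is given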
Calb FLC = affects C. albicans growth with fluconazole. growth inhibition, % (no concentration beside the values). C. albicans CaCi-2 (fluconazole-resistant clinical isolate) + fluconazole, Alamar Blue growth, 48 h. actives 0.57% (n = 300,000);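 active means most replicates above 75%; inconclusive means exactly half above 75%; inactive means most below 75%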;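 further: all wells also contain fluconazole at 8 µg/ml as a sub-toxic cotreatment; 0% = median of DMSO wells and 100% = median of geldanamycin control wells; wells of about 8 µL received 7.5 nL stock; the first replicate is given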
AF4-AF9 inh = MLL-AF4/AF9 protein interaction inhibition; inhibition, % at 10 µM; actives 0.47% (n = 350,000); P42568; AID 651704; AlphaScreen, biotin-AF4 peptide binding to FLAG-AF9;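 active means every replicate reaching a set inhibition limit, whatever the replicate mean, cut at about 25% in these data; inconclusive means mean inhibition reaches that limit but some replicates miss it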;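 further: 0% = plate neutral control median and 100% = total signal loss; the record names both 10 and 1 µM as test concentration; the first replicate is given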
Target sequence (P42568 whole entry, looked up): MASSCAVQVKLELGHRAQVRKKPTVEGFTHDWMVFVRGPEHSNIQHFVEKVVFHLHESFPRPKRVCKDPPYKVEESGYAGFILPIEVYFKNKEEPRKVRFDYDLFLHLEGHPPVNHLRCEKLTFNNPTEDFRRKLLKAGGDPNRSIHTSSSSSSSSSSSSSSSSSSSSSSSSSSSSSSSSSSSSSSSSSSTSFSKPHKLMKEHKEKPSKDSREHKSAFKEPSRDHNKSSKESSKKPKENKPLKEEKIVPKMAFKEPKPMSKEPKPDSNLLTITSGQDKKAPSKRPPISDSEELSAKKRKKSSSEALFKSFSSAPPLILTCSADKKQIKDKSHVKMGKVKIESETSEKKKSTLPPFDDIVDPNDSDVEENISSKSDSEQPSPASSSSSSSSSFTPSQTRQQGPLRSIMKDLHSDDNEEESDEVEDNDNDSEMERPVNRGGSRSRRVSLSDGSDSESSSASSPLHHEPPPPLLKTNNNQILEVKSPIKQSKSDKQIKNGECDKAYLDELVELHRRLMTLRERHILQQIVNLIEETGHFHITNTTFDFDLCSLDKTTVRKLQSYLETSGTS
Ecoli rRNA inh OD600 = second read-out of Ecoli rRNA inh, no call of its own (marks repeat the call); OD600 change, %; measured here: OD600 growth;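 optical density of the mix in the first replicate; 0 = DMSO median and -100 = no signal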
Ecoli rRNA inh RFP = also measured in Ecoli rRNA inh; calls as there; RFP signal change, %; measured here: RFP humanized mutant strains;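 first replicate; 0 = DMSO median and -100 = no signal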
* marks the source's active call; other numbers are inactive results; i = inactive; ? = inconclusive; . = not tested or not shown.

smiles,ALR inh,Ecoli rRNA inh RFP,Ecoli rRNA inh OD600,RanGTP-Impb inh,Calb FLC,T cruzi repl,FGF22 binding,AF4-AF9 inh,Ecoli rRNA inh,Beta cell apopt
CC(C)=CCC[C@](C)(O[C@@H]1O[C@H](CO[C@@H]2OC[C@H](O[C@@H]3OC[C@@H](O)[C@H](O)[C@H]3O)[C@H](O)[C@H]2O)[C@@H](O)[C@H](O)[C@H]1O)C1CC[C@]2(C)C1[C@H](O)CC1[C@@]3(C)CC[C@H](O)C(C)(C)C3[C@@H](O)C[C@]12C (stereo partly drawn),-9,-1.0,5,.,.,.,i,-3.3,5,-2
CCOC(=O)c1[nH]c2ccc(OCC)cc2c1NC(=O)CN1CCN(c2ccccc2)CC1,2,.,.,3.4,2,39,.,.,.,4
CC1CCC(NC(=O)C(Cc2ccccc2)n2cccc2)CC1 (stereo not drawn),-3,1.1,-6,1.2,-1,26,i,9.7,-1,-2
O=C(CCc1ccc(S(=O)(=O)NC2CCCCC2)cc1)NCc1ccccn1,-3,-1.6,2,4.5,15,-1,i,-0.5,4,-2
COc1ccc(N2C(=NC(=O)C3CC3)SC3CS(=O)(=O)CC32)cc1Cl (stereo not drawn),0,-0.6,22,-1.1,.,-9,i,-1.4,12,-3
Cc1ccccc1NC(=O)C(NS(=O)(=O)c1ccc2c(c1)c(=O)n(C)c(=O)n2C)c1ccccc1 (stereo not drawn),-1,4.2,-1,0.2,-4,-4,i,-3.6,6,1
CCC(=O)N1N=C(c2c(O)n(C)c(=O)n(C)c2=O)CC1c1ccccc1 (stereo not drawn),.,-14*,-28*,2.6,-7,5,i,-0.6,-46*,69
O=C(NC(NC(=S)Nc1c(Cl)cccc1Cl)C(Cl)(Cl)Cl)OCc1ccccc1 (stereo not drawn),.,-2.5,-66,0.2,13,10,i,?,-35,12
COc1ccc(CNC(=O)NCCc2c[nH]c3ccccc23)cc1,-4,-4.9,-7,5.2,-2,-11,i,2.6,-5,2
O=C1NC[C@H](c2ccccc2)N(CCc2cc(C(F)(F)F)cc(C(F)(F)F)c2)C1=O,-34,-28,-83,1.3,-9,-6,i,3.4,-55,-2
COc1ccc(OC)c(NC(=O)CCCCCn2nnc3ccccc3c2=O)c1,7,-3.5,-10,1.0,10,4,i,1.9,-13,-5
Fc1ccc(CNC(=S)Nc2ccccc2Cl)cc1,.,.,.,1.3,-1,-6,.,.,.,1
CCOC(=O)N1CCN(c2c(NC3CCN(Cc4ccccc4)CC3)c(=O)c2=O)CC1,0,0.1,9,-1.2,0,-7,i,-4.3,3,-1
COC(=O)c1c(O)ccc(Oc2ccccc2)c1C(=O)OC,4,.,.,2.4,16,-10,.,.,.,-4
COCCNC(=O)Cn1cc(S(=O)(=O)N2CCN(c3ccccc3F)CC2)c2ccccc2c1=O,-4,-1.1,13,0.8,-22,5,i,0.0,11,-1
Cc1sc2ncnc(OCC(=O)NCC3CCCO3)c2c1C (stereo not drawn),-4,.,.,-4.2,-12,-20,.,.,.,-3
Cc1noc(/C=C/N(C)C)c1S(=O)(=O)N1CCCC(C(=O)NC2CCCCC2C)C1 (stereo not drawn),13,6.4,5,-0.3,0,17,i,8.9,6,-5
CCc1cccc(OCC2Cn3c(nc4c3c(=O)n(C)c(=O)n4C)O2)c1 (stereo not drawn),.,3.6,0,2.6,5,3,i,1.7,8,4
O=C1CC2(CCN(C(=O)c3c(F)cccc3Cl)CC2)Oc2ccccc21,-3,0.0,-3,-0.2,-14,-10,.,0.1,-1,-2
Cc1nc2ccccc2c(=O)n1/N=C1\C(=O)N(C)c2ccccc21,-38,.,.,2.2,-3,-24,.,.,.,-13
NS(=O)(=O)c1ccc(NC(=S)NNC(=O)c2cccs2)cc1,97*,1.1,19,1.2,8,-15,i,-4.9,12,5
CCOC(=O)c1ccc(C(=O)NNC(=O)C2CC=CCC2)cc1 (stereo not drawn),.,-3.2,8,0.6,-1,-1,i,0.3,6,0
COc1ccc(CNC(=O)COC(=O)CN2C(=O)C(C)Oc3ccc(C)cc32)cc1 (stereo not drawn),-1,8.1,-1,5.9,-16,-8,i,-1.3,-10,-1
O=C(CSc1nc2c(c(=O)n1-c1ccccc1)SCC2)NCC1CCCO1 (stereo not drawn),-4,-1.0,2,4.2,3,-11,i,-2.0,18,-3
CC(C)c1ccc(NC2CCCN(C(=O)CCN3CCCCO3)C2)cc1 (stereo not drawn),79*,.,.,-0.8,0,3,i,2.4,.,6
CC(=O)N1CCN(c2cc(N3CCc4ccccc4C3)c(F)cc2[N+](=O)[O-])CC1,13,-5.4,-48,0.6,10,28,.,.,-35,-4
COc1nc(NCCc2ccc(OC)c(OC)c2)nc(Nc2ccccc2)n1,1,-4.9,-34,-0.1,3,24,i,7.3,-31,10
O=C(OC1CCOC1=O)c1ccc(NS(=O)(=O)c2cccs2)cc1 (stereo not drawn),.,-3.0,1,-0.7,-7,-8,i,-1.0,0,2
Cc1ccc(OCC(=O)NC(=S)Nc2ccc3c4c(cccc24)CC3)cc1,-1,4.8,8,0.7,-5,3,i,0.0,10,-11
CCC(C)(C)C1CCc2[nH]nc(C(=O)NC3CCCCC3)c2C1 (stereo not drawn),-12,-0.7,13,.,.,.,i,-0.8,8,4
COc1cc2nc(CN3CCN(S(=O)(=O)c4ccccc4C(F)(F)F)CC3)[nH]c(=O)c2cc1OC,0,4.8,-8,.,.,.,i,2.8,-11,2
COc1ccc(NC(=O)c2ccc3c(c2)OCO3)cc1S(=O)(=O)N1CCOCC1,6,0.5,7,.,.,.,i,0.6,2,-4
Cc1nn(-c2ccccc2)c(C)c1NC(=O)COC(=O)c1ccc(Cl)c(S(N)(=O)=O)c1,0,-2.0,3,-3.2,9,-14,i,-4.6,1,3
Nc1ccc2oc(-c3ccccc3Cl)cc(=O)c2c1O,.,-10,2,-0.9,0,-8,i,13,3,-4
O=C(Cn1cc([N+](=O)[O-])nc1[N+](=O)[O-])N1CCN(c2ccccc2)CC1,-4,.,.,-1.6,9,12,.,.,.,18
CCOC(=O)c1sc(C)c2c1NC(c1ccc(N(C)C)cc1)NC2=O (stereo not drawn),.,.,.,-17,-4,0,.,.,.,-4
CCOc1ccc(CNC(=O)CCSCc2ccccc2F)cc1OC,.,3.5,-2,0.0,1,-7,i,-1.9,20,3
COc1cc(/C=N/Nc2nc3ccccc3[nH]2)cc(Br)c1OCC(=O)N(C)C,99*,-0.7,7,-0.3,2,-9,i,1.7,11,1
N#Cc1ccc(/C=N/NC(=O)c2cc(-c3cccs3)nc3ccccc23)cc1,0,.,.,1.2,1,2,.,.,.,11
CCCCn1ccnc1C(=O)c1cccc(S(=O)(=O)N2c3ccccc3CC2C)c1 (stereo not drawn),-21,.,.,-0.1,3,33,.,.,.,9
CCOc1ccccc1NC1c2ccccc2C(=O)N1Cc1ccco1 (stereo not drawn),29,0.1,-41,-0.7,1,-3,i,1.0,-7,-3
Cc1nc2ccc(F)cc2cc1C(=O)Nc1ccc(Cl)c(Cl)c1,4,-4.4,0,-2.0,4,-9,i,10,11,-6
Cc1nc2ccccn2c1/C(O)=C1\C(=O)C(=O)N(CCN(C)C)C1c1ccco1 (stereo not drawn),-11,-3.8,14,1.3,12,2,i,-1.1,18,-3
O=C(NCCc1c[nH]c2ccccc12)C(F)(F)C(F)F,48,-2.9,-3,-6.4,-4,-9,.,.,-4,1
CC(=O)N1c2ccc(S(=O)(=O)N3CCCC(C(=O)Nc4cccc(F)c4)C3)cc2CC1C (stereo not drawn),-4,0.6,-8,3.0,-1,1,i,0.1,-2,11
COCCn1cnc2c1c(=O)n(Cc1c(F)cccc1Cl)c(=O)n2Cc1ccccc1,-50,1.7,-17,-1.3,1,9,i,3.0,-5,0
O=C(CNC(=O)c1ccc2c(c1)OCO2)Nc1ncccc1O,-43,1.9,10,4.7,3,-9,.,-0.7,12,-5
Cc1ccc(CNC(=O)c2cc(-c3cc(C)cc(C)c3O)n[nH]2)cc1,6,-2.1,-11,-3.5,-4,31,i,-8.2,-17,-1
COc1ccc(OCC(=O)NCCCN2CCOCC2)cc1,-17,.,.,7.0,-12,6,.,.,.,-1
CCOC(=O)C1C(=O)NC(c2ccccc2)=NC1c1ccc(Br)cc1 (stereo not drawn),.,3.5,5,2.0,?,-9,i,-2.2,7,3
Cc1ccc(C(=O)CSc2nc3cccnc3n2C)cc1,16,.,.,0.1,-3,2,.,.,.,0
CCCN(CC(=O)Nc1cccc(Br)c1)CC(=O)Nc1ccc(F)c(F)c1F,.,.,.,0.8,-3,11,.,.,.,-4
CC(C)(C)S(=O)(=O)c1ccsc1C(=O)O,-2,7.6,14,4.6,44,-17,i,-0.6,4,-9
CCOC(=O)c1c(C)sc2c1N(C(C)=O)c1cc(Cl)ccc1S2,9,.,.,-3.8,2,1,.,.,.,5
CC(C)(C)N(CC#CCC(O)(c1ccccc1)c1ccccc1)CCO,.,2.2,-9,-1.1,0,15,i,-5.3,3,-2
COC(=O)N/N=C/c1cn(Cc2ccccc2F)c2ccccc12,0,-4.6,-11,3.7,21,8,i,5.6,-21,36

Next section.
smiles,ALR inh,Ecoli rRNA inh RFP,Ecoli rRNA inh OD600,RanGTP-Impb inh,Calb FLC,T cruzi repl,FGF22 binding,AF4-AF9 inh,Ecoli rRNA inh,Beta cell apopt
C=C(C)C(=O)NC1=NN(c2ccccc2)C(=O)C1,59,.,.,0.0,-10,-1,.,.,.,-8
COc1ccc(CCNC(=O)CCC(=O)c2cccs2)cc1OC,.,-0.4,9,5.2,0,0,i,0.0,7,-5
COC(=O)[C@]1(C)N[C@H](CN(C)S(=O)(=O)c2ccc(OC)cc2)[C@@H]2C(=O)N(C)C(=O)[C@@H]21,1,.,.,.,.,.,i,-0.8,.,-6
O=C1N/C(=N/O)S/C1=C/c1cccnc1,47,-1.7,5,0.2,-10,-4,i,-2.6,5,-4
O=C(O)Cc1ccc(NC(=S)Nc2ccc(Br)cc2Cl)cc1,-1,2.1,1,2.4,-5,-17,i,-1.3,-5,-1
Cc1ccccc1-c1cc(C(=O)NCc2cccc(Br)c2)nn1CC1CC(c2cccc([N+](=O)[O-])c2)=NO1 (stereo not drawn),3,1.6,2,.,.,.,i,-0.3,10,0
O=c1cc(N2CCOCC2)[nH]c(=O)n1C1CCCCC1,.,.,.,8.3,8,-4,.,.,.,-1
Cc1oc(-c2cc(F)cc(F)c2)nc1CN1CCSCC1,0,-1.5,1,-3.9,10,7,i,-6.2,-7,-5

Not all compounds are listed. The share of hits here may be higher or lower than overall.
